CBX7 inh: CBX7 chromodomain binding inhibitors, primary screen, biochemical, AlphaScreen. 1.1% of 66,000 active. AlphaScreen His6-CBX7 / biotin-H3K27me3 peptide binding; stronger effect = lower value. AID 1224903, 2016. normalised signal (fraction of DMSO) (concentration not given with the values). Chromobox protein homolog 7 (Homo sapiens), O95931; in the data active = normalised signal below about 0.5;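 note: 100 nL library stock added to about 20 µL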
Target sequence (O95931 whole entry, looked up): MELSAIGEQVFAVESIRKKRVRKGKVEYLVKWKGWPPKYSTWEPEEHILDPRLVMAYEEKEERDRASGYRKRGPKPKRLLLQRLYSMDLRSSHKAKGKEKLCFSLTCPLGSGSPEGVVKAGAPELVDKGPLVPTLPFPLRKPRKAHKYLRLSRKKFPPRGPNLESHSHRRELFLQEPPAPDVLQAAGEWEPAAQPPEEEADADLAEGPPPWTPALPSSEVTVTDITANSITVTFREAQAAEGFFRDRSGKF
CBX7 inh z-score: also measured in CBX7 inh; calls as there; z-score; measured here: z-score of CBX7 signal; some inactives read as strong as hits; reference of the scale not given here;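 same signal on another scale; lower means less binding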
Starred values were filed as active, the others as inactive.

SMILES	CBX7 inh	CBX7 inh z-score
Cc1ccc(Nc2c(-c3cccnc3)nc3ccc(C)cn23)cc1	0.937	-3.04
O=C(Nc1ccc(Oc2ccccc2)cc1)c1cnc(N2CCN(c3ccccn3)CC2)c2ccccc12	0.925	-2.51
C=C(C)c1cccc(C(C)(C)NC(=O)N2CCN(c3ccc(F)cc3)CC2)c1	0.955	-0.927
Cc1ccc(-c2nc3cc(NC(=O)c4ccc(OCC(C)C)cc4)ccc3o2)c(C)c1	0.994	-0.309
COc1ccc(N2CCN(C(=O)CCc3c(C)nc4cc(-c5cccc(F)c5)nn4c3C)CC2)cc1	0.948	-1.95
COC(=O)c1c(NC(=O)c2ccc(F)cc2)sc(Cc2ccccc2)c1C	1.2	2.55
Cc1cc(OCC(O)CN2CCN(C)CC2)ccc1Cl (centres undefined)	0.96	-0.563
COC(=O)c1ccccc1NC(=O)Cn1ncc2c1-c1cc(C)ccc1OC2	1.01	0.15
O=C(CSc1nnc(CNC(=O)c2cccs2)o1)Nc1ccc(Cl)cc1	1.01	0.321
COc1ccc(C2C(C(=O)Nc3cccc(C)n3)=C(C)NC3=C2C(=O)CC(C)(C)C3)cc1 (centres undefined)	1.55	1.11
COc1cc2c(cc1OC)C(c1ccc(Cl)cc1)CC(=O)N2 (centres undefined)	0.888	-1.44
COc1ccc(N2CCN(c3ccc4nncn4n3)CC2)cc1	0.969	-0.842
CCn1cc(C(=O)Nc2ccc(OC)c(Cl)c2)c(=O)c2ccc(C)nc21	1.09	0.971
Cc1cccc2c1-c1sc(C(=O)Nc3ccccc3C(N)=O)cc1CO2	1.01	0.245
CN(CCNS(=O)(=O)c1ccc2c(c1)CCN2C(=O)C1CCC1)Cc1ccccc1	0.947	-1.48
CCC1Oc2ccc(C)cc2N(CC(=O)N2CCN(c3cc(C)ccc3C)CC2)C1=O (centres undefined)	0.979	-1.03
O=C(NCc1cccs1)c1ccc2c(c1)N(Cc1ccccc1)C(=O)CS2=O (centres undefined)	0.978	-0.393
Cc1ccc(Cl)cc1N1CCN(C(=O)CC(C(=O)N2CCc3ccccc32)n2ccnc2)CC1 (centres undefined)	0.67	-7.52
COCCN1Cc2cccc(C(=O)Nc3ccc(F)cc3)c2C1=O	1.02	0.646
Cc1ccccc1Nc1c(-c2cccc(Cl)c2)nc2cccc(C)n12	1.03	0.311

Two entries drawn at random from those above, as already listed:
SMILES	CBX7 inh	CBX7 inh z-score
O=C(NCc1cccs1)c1ccc2c(c1)N(Cc1ccccc1)C(=O)CS2=O (centres undefined)	0.978	-0.393
Cc1cc(OCC(O)CN2CCN(C)CC2)ccc1Cl (centres undefined)	0.96	-0.563

Following part
SMILES	CBX7 inh	CBX7 inh z-score
Cc1c(C(=O)Nc2ccc(-c3nc4cc(Cl)ccc4o3)cc2)oc2ccccc12	1.11	2.78
COc1ccc(Cn2c(=O)c3cccnc3n(CC(=O)Nc3ccc(C)cc3C)c2=O)cc1	1.03	0.605
CC(C)CCNC(=O)CN1C(=O)CSc2ccccc21	0.923	-2.31
O=C(NCc1ccncc1)c1cc(-c2ccc3c(c2)OCO3)nc2ccccc12	1.09	3.09
Cc1ccc(C)c(N2C(=O)CC3CS(=O)(=O)CC32)c1 (centres undefined)	0.97	-0.283
COc1ccc(C2CC(=O)N(CC(=O)Nc3ccc(C)c(Cl)c3)c3ccccc3S2)cc1 (centres undefined)	0.931	-1.15
COc1ccc(C2C(Oc3ccc(Cl)cc3C)C(=O)N2c2cccc(C(F)(F)F)c2)cc1OC (centres undefined)	0.99	-0.0777
c1ccc(CC(CCNCc2ccc3c(c2)OCO3)c2ccc3c(c2)OCO3)cc1 (centres undefined)	0.884	-0.752
COc1ccc(NC(=O)CSc2nnc(-c3cccnc3)n2Cc2ccccc2)cc1	1.03	0.807
CCCCC(CC)CNC(=O)CCn1c(=O)[nH]c2ccsc2c1=O (centres undefined)	1.17	1.26
COC(=O)C1=C(C)N(Cc2ccccc2)C(=O)NC1c1ccccc1F (centres undefined)	0.766	-2.54
COc1ccc(NC(=O)CSc2nc(-c3ccc(OC)cc3)[nH]c2-c2ccccc2)cc1	0.987	-0.599
COc1cccc(-c2nc(CSCC(=O)NC(C)CCc3ccccc3)c(C)o2)c1 (centres undefined)	1.11	1.24
COc1ccc(C)cc1NC(=O)c1nn(-c2ccccc2OC)c(=O)c2ccccc12	0.905	-2.71
Cc1[nH]n2c(=O)c3c(nc2c1-c1ccccc1)CCC3	0.948	-0.974
C=C(C)Cn1c(CNC(=O)c2cccs2)nc2ccccc21	0.989	-0.112
CCOC(=O)c1cc(-c2ccccc2)n(CCC(=O)NC2CCCc3ccccc32)c1C (centres undefined)	0.964	-0.655
CCOc1ccc(C(=O)Nc2ccc(-c3nc4cc(C)cc(C)c4o3)cc2)cc1	0.793	-2.11
CCCCCCNC(=O)CCc1c(C)nc2c(-c3ccccc3)c(C)nn2c1C	1.16	1.73
O=C(Nc1cccc(Cl)c1)C1CC(=O)N(c2ccc(Cl)cc2)C1 (centres undefined)	1.02	0.154

7 of these compounds, set out differently:
SMILES,CBX7 inh,CBX7 inh z-score
Cc1c(C(=O)Nc2ccc(-c3nc4cc(Cl)ccc4o3)cc2)oc2ccccc12,1.11,2.78
COc1ccc(Cn2c(=O)c3cccnc3n(CC(=O)Nc3ccc(C)cc3C)c2=O)cc1,1.03,0.605
CC(C)CCNC(=O)CN1C(=O)CSc2ccccc21,0.923,-2.31
O=C(NCc1ccncc1)c1cc(-c2ccc3c(c2)OCO3)nc2ccccc12,1.09,3.09
Cc1ccc(C)c(N2C(=O)CC3CS(=O)(=O)CC32)c1 (centres undefined),0.97,-0.283
COc1ccc(C2CC(=O)N(CC(=O)Nc3ccc(C)c(Cl)c3)c3ccccc3S2)cc1 (centres undefined),0.931,-1.15
COc1ccc(C2C(Oc3ccc(Cl)cc3C)C(=O)N2c2cccc(C(F)(F)F)c2)cc1OC (centres undefined),0.99,-0.0777

Continuation.
SMILES	CBX7 inh	CBX7 inh z-score
CCCCNC(=O)c1cn(CC)c(=O)c2cc(OC)c(OC)cc12	1.08	0.675
CCN1CCN(C(=O)CC2Oc3ccccc3NC2=O)CC1 (centres undefined)	1.04	0.244
O=C1c2ccc(N3Cc4ccccc4C3)cc2C(=O)N1c1cccc(Cl)c1	1.09	1.54
COc1ccc(-c2nc3cc(NC(=O)C4CCCCC4)ccc3o2)cc1	1.01	0.00821
CCSc1oc(-c2ccccc2)nc1S(=O)(=O)c1ccc(C)cc1	1.1	0.485
CC(C)c1ccc(NS(=O)(=O)c2ccc3[nH]cc(C(=O)NC4CCCC4)c(=O)c3c2)cc1	0.899	-1.88
O=C(c1ccc(-c2nc3ccccc3o2)cc1)N(C1CCCCC1)C1CCCCC1	1	0.106
Cc1ccccc1-c1nc(CN2CCCC(C(=O)NCCc3ccccc3)C2)c(C)o1 (centres undefined)	0.807	-2.31
CCOC(=O)CC(NC(=O)c1cc2c(s1)-c1ccccc1OC2)c1cccs1 (centres undefined)	1.2	2.8
Cn1c(SCc2nc3ccccc3[nH]2)nc(=O)c2ccccc21	1.04	0.477
COc1ccc(-c2noc(-c3ccc(Cl)cc3Cl)n2)cc1	0.954	-1.13
O=C(CCCn1c(=O)[nH]c2ccccc2c1=O)N1CCN(c2ccccn2)CC1	1.13	0.371
CC(Oc1ccccc1F)C(=O)Nc1c(C(=O)c2ccc(Cl)cc2)oc2ccccc12 (centres undefined)	1.13	1.77
Cc1c(C(=O)O)oc2ccc(S(=O)(=O)N3CCCCC3)cc12	1.04	0.935
Cc1cccc(NS(=O)(=O)c2ccc3c(c2)CCN3C(=O)C2CCC2)c1C	0.956	-1.26
CC(=O)OCCCNc1nc(-c2ccc(Cl)cc2)nc2ccccc12	0.898	-1.21
CCCCc1ccc(Nc2nc3ccccc3nc2NS(=O)(=O)c2ccccc2)cc1	0.839	-4.62
CCOc1ccc(-n2cnnn2)cc1S(=O)(=O)NC(c1ccccc1)c1ccccc1	0.962	-0.37
CCOC(=O)c1c(NC(=O)C(C)Oc2ccc(OC)cc2)sc(C)c1C (centres undefined)	1.03	1.09
COc1ccc(NS(=O)(=O)c2ccc(NC(=O)c3ccccc3Br)cc2)nn1	1.02	0.411
Cc1ccc(C(C(=O)NC2CCCC2)N(C)Cc2ccccc2)cc1 (centres undefined)	0.703	-7.41
O=C(O)c1[nH]c2ccc(Cl)cc2c1CC(=O)N1CCOCC1	1.01	0.351
CC(C)(C)C1CCC(C(=O)Nc2ccc3nc4n(c(=O)c3c2)CCCCC4)CC1 (centres undefined)	1.04	1.54
COc1ccc(CCNC(=O)C2c3ccccc3C(=O)N2C2CCCCCC2)cc1OC (centres undefined)	0.85	-1.78
Cc1ccc(NCc2nc3ccccc3n2CCOc2ccccc2)cc1	0.856	-5.28
CCc1ccc(CN2C(=O)c3ccccc3C2C(=O)NC2CCCC2)cc1 (centres undefined)	0.88	-1.42
Cc1ccc(NC(=O)Cn2cc(S(=O)(=O)c3ccccc3)c(=O)c3cc(Cl)ccc32)c(C)c1	0.803	-3.23
COc1ccc(-c2nc(CSCC(=O)NCCc3ccccc3)c(C)o2)cc1	1.04	0.332
Cc1nc2ccccn2c1-c1csc(Nc2ccc(Br)cc2Br)n1	0.795	-2.36
CC(NC(=O)CN1C(=O)COc2ccc(S(=O)(=O)N3CCCCCC3)cc21)c1ccccc1 (centres undefined)	1.03	1.09
CC(C)(C)NC(=O)c1ccc2c(c1)N(Cc1cccc(Cl)c1)C(=O)c1ccccc1S2=O (centres undefined)	0.981	-0.121
COc1ccc(-n2cnc3cc(C(=O)NCc4ccccn4)ccc32)cc1	1.02	0.202
CCn1c(-c2nonc2NC(=O)Cn2nnc(-c3ccccc3)n2)nc2ccccc21	1.04	0.454
Cc1c(O)ccc(-c2[nH]ncc2Oc2ccccc2)c1O	0.606	-6.11
O=C1CC(N2CCN(C(c3ccccc3)c3ccccc3)CC2)C(=O)N1c1ccc(Br)cc1 (centres undefined)	0.903	-1.34
CCC(=O)Nc1c(-c2ccccc2)nc2c(C)cccn12	1.11	0.763
O=C(NC(Cc1ccccc1)c1nc2ccccc2[nH]1)c1ccccc1 (centres undefined)	1.11	0.874
Cc1nc2c(C(=O)N3CCc4ccccc4C3)cnn2c(C)c1Cc1ccc(Cl)cc1	0.972	-0.818
O=C(Cn1nc(Cc2ccncc2)c2ccccc2c1=O)NCCCN1CCOCC1	1.03	0.798
COc1ccc(-c2noc(CCC(=O)Nc3cccnc3)n2)cc1	0.883	-0.116
N#CCCN(C(=O)c1ccc2c(=O)n3c(nc2c1)CCCCC3)c1ccccc1	0.807	-3.17
Cc1sc2ncn(CC(=O)NCCCC(=O)NCc3ccc(F)cc3)c(=O)c2c1C	1	-0.00325
CCc1ccccc1NC(=O)CCc1nc(-c2ccc(C)cc2)no1	1	0.109
COCCCNC(=O)c1ccc2c(c1)N(Cc1ccc(F)cc1)CCS2	0.967	-1.59
O=C(NCCc1ccccc1)c1ccc2c(c1)N(Cc1ccccc1Cl)C(=O)CS2	0.976	-0.935
Cc1ccc(C)c(N2CCN(S(=O)(=O)c3ccc4c(c3)CCC(=O)N4)CC2)c1	0.943	-1.28
COc1ccc(NC(=O)c2cc(-c3ccc(OC)c(OC)c3)on2)cc1	1.2	1.6
Cc1oc(-c2ccc(Cl)cc2)nc1CN1CCCC(C(=O)NCCN(CC(C)C)CC(C)C)C1 (centres undefined)	0.994	-0.177
O=C1CCCc2[nH]c(=O)c(C(=O)NCc3ccc(F)cc3)cc21	1.17	2.2
O=C(CCc1ccccc1)Nc1c(-c2cccs2)nc2ccccn12	0.951	-1.4
Cc1ccc(C(C)C)c(OCC(=O)Nc2cccc(-c3nc4ncccc4o3)c2)c1	0.881	-3.21
O=C1c2[nH]nc(-c3ccccc3)c2C(c2cccc(F)c2)N1c1cccc(C(F)(F)F)c1 (centres undefined)	0.952	-1.18
Cc1cc(Br)ccc1NC(=O)Cn1ncc2c1-c1ccccc1OC2	0.936	-0.926
O=C(Nc1cccnc1)c1cc(Br)ccc1OCc1ccccc1Cl	0.548	-6.33
CCOC(=O)c1cccc(NC(=O)c2cc3sccc3n2Cc2ccc(C)cc2)c1	0.877	-3.37
CCC(Oc1ccccc1F)C(=O)Nc1c(C(=O)c2ccc(C)cc2)oc2ccccc12 (centres undefined)	1.22	0.764
Cc1c(C(=O)Nc2ccccc2F)sc2nc(-c3ccc(F)cc3)cn12	0.931	-1.33
O=C(NCc1ccccn1)c1ccc2c(c1)N(Cc1ccc(F)cc1)C(=O)CS2	0.877	-1.22
CC(=O)N1CCc2cc(S(=O)(=O)Nc3ccc(C)cc3)ccc21	0.832	-0.677
COc1ccc(C2CC(c3cccc(Br)c3)Nc3ncnn32)cc1 (centres undefined)	1.09	3.23

Later entries.
SMILES	CBX7 inh	CBX7 inh z-score
CC(C)c1ccc(-c2csc(NC(=O)c3ccc(Cl)cc3)n2)cc1	1.09	1.23
COCCCNC(=O)Cn1ncc2ccsc2c1=O	1.05	1.52
CCOc1ccc(N(CC)S(=O)(=O)c2ccc3c(c2)CC(C)N3C(C)=O)cc1 (centres undefined)	1.01	0.319
Cc1nc2c(C(=O)N3CCCC(C)C3)cnn2c(C)c1Cc1ccc(Cl)cc1 (centres undefined)	1	0.0325
CCOc1ccc(NC(=O)CSc2nnc(CNC(=O)c3cccs3)o2)cc1	1.03	1.26

Screening data from PubChem BioAssay.

Some of the compounds tested; the hit share may differ from the screen's.
